MgrA DNA FP: alters Staphylococcus aureus MgrA binding to DNA; fluorescence polarization; inhibition, %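 (about 10 µg/mL by stock and volumes)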; 84,000 tested, 0.13% active;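 active = above 50% in either of two replicates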;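 also: 0% = protein plus DNA without compound and 100% = DNA alone without protein; higher means less MgrA bound to DNA so lower polarization; one replicate is shown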
Sa helicase inh: S. aureus DNA helicase inhibition; purified S. aureus helicase, fluorescence unwinding assay; about half of the hits fall short of the stated cut; inhibition, %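 (tested at about 80 µM)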; 120,000 tested, 0.05% active;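 active = both duplicates at 50% or more, or one of them with a favoured structure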;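 also: 0% = mean of negative control wells and 100% = mean of positive control wells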
Starred values were filed as active, the others as inactive; nt = not tested or not shown. Not all compounds are listed. The share of hits here may be higher or lower than overall.

item	MgrA DNA FP	Sa helicase inh	smiles
1	nt	21.0	Cc1nn2c(c1-c1ccc(Cl)cc1)N=C(c1ccco1)CC2c1ccccc1 (stereo unspecified)
2	0.3	1.0	O=C1NC(c2cccc(F)c2)=N/C1=C\C=C\c1ccccc1
3	1.5	16.0	CSc1ccc(CCNC(=O)c2csc3c2CCCC3)cc1
4	-2.7	nt	CC(C)(C)c1ccc(Oc2ncccc2NC(=O)c2cccs2)cc1
5	nt	-11.0	OCc1nc2ccccc2n1CCC1CCCCC1
6	3.1	nt	Cc1cc([N+](=O)[O-])nn1CC(=O)Nc1cc(Oc2cccc(Cl)c2)cc([N+](=O)[O-])c1
7	2.2	0.0	COc1ccc(-n2nc(C(=O)NCc3cc(OC)ccc3OC)c3c4ccccc4n(C)c3c2=O)cc1
8	-0.4	nt	CCOC(=O)C1=C(C)N=c2s/c(=C\c3cc(Br)ccc3OC(C)=O)c(=O)n2C1c1ccc(OC(C)=O)cc1 (stereo unspecified)
9	nt	-3.0	O=C(COC(=O)c1ccc2c(c1)OCO2)NC1C2CC3CC(C2)CC1C3 (stereo unspecified)
10	-0.8	nt	O=S(=O)(Nc1cccc2nsnc12)c1cc(Cl)sc1Cl
11	1.3	nt	CCCCCCCCCCCCCC#CC(O)C(N)CO (stereo unspecified)
12	nt	8.0	COCCCNc1nc2ccc(C(=O)c3ccccc3)cc2n2cnnc12
13	-2.4	13.0	O=S1(=O)NC(=NCc2ccco2)c2ccccc21
14	nt	18.0	Cc1ccc(NC(=O)/C(CN(C)C2CCCCC2)=N\O)cc1
15	-1.9	nt	CC(=O)N1CCN(c2ccc(OC[C@H]3CO[C@](Cn4ccnc4)(c4ccc(Cl)cc4Cl)O3)cc2)CC1
16	nt	11.0	CCOC(=O)N1CCC(NC(=O)CCC(=O)N2CCOc3ccccc32)CC1
17	1.0	0.0	CCOC(=O)c1c(NC(=O)c2nc3ncccn3n2)sc2c1CCC(CC)C2 (stereo unspecified)
18	-1.0	10.0	CCn1c(C(=O)O)cc2oc(C)cc21
19	nt	-20.0	CC(C)C(C(=O)O)N1C(=O)C2C3C=CC(C3)C2C1=O (stereo unspecified)
20	-0.2	nt	CN(C)/C=N/C1N=C(C2CC2)N(C)C(=O)N1 (stereo unspecified)

Following part
item	MgrA DNA FP	Sa helicase inh	smiles
21	2.8	0.0	N#C[C@@H]1[C@@H](C(=O)c2ccc(F)cc2)N2C=Cc3ccccc3[C@@H]2[C@@]1(C#N)C(=O)c1ccccc1
22	nt	10.0	FC(F)(F)c1nc(N2CCCCC2)nc2c1CCCCC2
23	-1.5	nt	CCN(CCS(=O)(=O)c1ccc(Cl)cc1)S(=O)(=O)c1ccc(C)cc1
24	-4.2	nt	O=C(Oc1cc(=O)oc2ccccc12)c1ccccc1
25	nt	27.0	COc1cc(NC(=O)CC2OCCN(Cc3ccccc3)C2=O)cc(OC)c1 (stereo unspecified)
26	-1.2	nt	S=C1SCN(Cc2ccncc2)CN1Cc1ccncc1
27	nt	-17.0	O=C(Nc1ccccc1)Nc1ccc(OC(F)F)cc1
28	2.9	-25.0	O=C(O)c1c(Cl)nc2sccn12
29	-1.2	16.0	O=C(CCC1CCCCC1)Nc1ccc(-c2cn3cccnc3n2)cc1
30	nt	9.0	Cc1ccc(NC(=O)C(C)Sc2nc(N)cc(=O)[nH]2)cc1 (stereo unspecified)
31	nt	-14.0	CC1=NC=CC2NC(=O)C(C#N)=CC12 (stereo unspecified)
32	2.3	nt	CCOc1ccc(C(=O)Nc2ccc3oc(-c4ccccc4F)nc3c2)cc1[N+](=O)[O-]
33	nt	-6.0	CC(C)Sc1nnc(NC(=O)c2ccc(F)cc2)s1
34	0.7	-3.0	COc1ccc(/C=C/C(=O)N(CC(C)C)CC(C)C)cc1
35	-3.4	0.0	O=C1N(c2ccccc2)CCN1c1ccccc1
36	nt	-17.0	O=C=NC12CC3CC(CC(C3)C1)C2
37	-0.6	nt	Cc1cc(C(=O)NN2C3CSC2CS3)no1
38	0.4	nt	COC(=O)C1=C(C)NC2=C(C(=O)CCC2)C1c1ccc2c(c1)CCC(C)(C)O2 (stereo unspecified)
39	-0.3	9.0	Cc1ccccc1N=CC=Nc1ccccc1C
40	-0.3	2.0	C=CCNC(=S)NC1(C)CCS(=O)(=O)C1 (stereo unspecified)

Pulled by structure from the entries so far:
item	MgrA DNA FP	Sa helicase inh	smiles
34	0.7	-3.0	COc1ccc(/C=C/C(=O)N(CC(C)C)CC(C)C)cc1
37	-0.6	nt	Cc1cc(C(=O)NN2C3CSC2CS3)no1

Remaining list, next part
item	MgrA DNA FP	Sa helicase inh	smiles
41	2.0	0.0	CSc1nc(N)c(C#N)s1
42	nt	2.0	CC(=O)N1N=C(c2cc(C3CC3)nc3ccccc23)OC1c1ccc2c(c1)OCO2 (stereo unspecified)
43	-1.5	5.0	CCn1ccnc1P(=O)(c1ccccc1)N1CCOCC1 (stereo unspecified)
44	-1.8	1.0	Cc1cc(NC(=O)c2cc(-c3ccc(F)cc3)no2)nn1CC(=O)N1CCC(C)CC1
45	-1.9	15.0	O=C(Cn1nnc2ccccc21)C1CC1
46	1.4	-11.0	Cc1ccc(CNC(=O)CSc2nc3ccsc3c(=O)n2C2CC2)cc1
47	-2.1	4.0	CCOC(=O)N1CCC(N(CCOC)C(=S)Nc2ccc(C)cc2C)CC1
48	-1.6	14.0	Nc1nc(=Nc2ccccc2)n2c(n1)sc1ccccc12
49	0.5	11.0	COc1ccccc1-c1nn(CCC(=O)NC2CCCC2)c2nc(C)cc(C)c12
50	-4.1	-24.0	O=C(Cc1ccccc1)Nn1cnc2ccccc21
51	nt	8.0	Cc1cc(C)nc(-n2nc(C)cc2NC(=O)CNC2CCCCC2)n1
52	nt	1.0	CNC(=S)NNc1ncccc1-n1cccc1
53	-0.6	5.0	COC(=O)C1CN(C(=O)/C=C/c2ccccc2)c2ccccc2O1 (stereo unspecified)
54	nt	6.0	CCCCCn1c(=O)c2ccccc2n2c(Cn3ncc(Cl)c(Cl)c3=O)nnc12
55	-0.9	nt	O=C(NC(=O)c1c(F)cccc1Cl)NN(Cc1c(F)cccc1Cl)c1ccccc1
56	0.9	9.0	O=C(C1CC1)N1N=C(c2ccc(Cl)cc2)CC1(O)C(F)(F)F (stereo unspecified)
57	-0.3	nt	CCc1c(C)[nH]c2ccc([N+](=O)[O-])cc12
58	3.5	0.0	COC(=O)C(C)NC(=O)C12CC3(C)CC(C)(CC(C)(C3)C1)C2 (stereo unspecified)
59	nt	-5.0	COc1cccc2cc(-c3nc4ccccc4[nH]3)c(=N)oc12
60	nt	9.0	CC(c1ccco1)N(C(=O)COc1ccc(Cl)cc1)c1ccccn1 (stereo unspecified)

Later entries:
item	MgrA DNA FP	Sa helicase inh	smiles
61	nt	-40.0	CCC(C)NC(=O)CCn1c(=O)sc2ccccc21 (stereo unspecified)
62	0.2	nt	Cc1cc(C)c2c(c1)CC(C)(C)c1[nH]c(-c3ccccc3)nc1-2
63	1.8	-4.0	NNC(=O)C(O)c1ccc(Cl)cc1 (stereo unspecified)
64	nt	-15.0	O=c1cc[nH]c2c(Cl)c(Cl)ccc12
65	1.2	9.0	NNc1nc(NN)nc(Nc2cccc(C(F)(F)F)c2)n1
66	-2.6	7.0	CCC(C)N(C(=O)NC1CCCCC1)C(C)CC (stereo unspecified)
67	5.0	10.0	CN(C)c1ccc(C(=S)N2CCN(C(c3ccccc3)c3ccccc3)CC2)cc1
68	nt	9.0	Cc1cccc(NC(=O)CS(=O)(=O)c2cn(C)c3ccccc23)c1
69	nt	12.0	COCCn1c(-c2cc3ccccc3o2)csc1=Nc1ccc(OC(F)F)cc1
70	nt	-5.0	CN(C)C(=O)c1ccc2c3c(cccc13)CC2
71	9.6	37.0	CC1=NOC(=O)/C1=C/c1ccc(O)cc1
72	1.5	15.0	O=C(CSC1CCCCC1)NCc1ccccc1
73	-2.7	nt	Cc1ccc(NC(=O)OCCS(=O)(=O)c2ccc(C(F)(F)F)cn2)cc1
74	-0.7	-17.0	Cc1ccc(NC(=O)COC(=O)c2nc(Cl)ccc2Cl)cc1
75	nt	-38.0	NC(=S)N/N=C/c1ccco1
76	nt	24.0	O=C(Nc1c(C(=O)N2CCOCC2)oc2ccccc12)c1cccc(F)c1
77	nt	3.0	O=C(OCC(=O)N(C1CCCCC1)C1CCCCC1)c1ccc(Br)o1
78	nt	0.0	O=C1CCN(C(=O)c2ccc(-c3cccc(C(F)(F)F)c3)o2)CC1
79	nt	-36.0	O=C(Nc1ccc(N2CCOCC2)cc1)c1cccs1
80	5.0	7.0	Cc1ccc(NCC(=O)N=Nc2c(O)[nH]c3ccccc23)cc1

(further entries)
item	MgrA DNA FP	Sa helicase inh	smiles
81	-2.0	17.0	CCOc1ccc2[nH]c(=O)c(CN(Cc3cccnc3)S(=O)(=O)c3ccccc3)cc2c1
82	-1.0	10.0	COc1ccc(OC)c(/C=N/N2C(=O)C3C(C2=O)C2C=CC3C23CC3)c1 (stereo unspecified)
83	nt	-5.0	NC(Cc1ccccc1)C(=O)O (stereo unspecified)
84	-0.6	13.0	O=C(OCC(=O)N1CCc2ccccc2C1)c1ccc(F)cc1Cl
85	nt	-7.0	COC(=O)C1Cc2ccccc2CN1Cn1nc(-c2ccco2)n(-c2ccccc2)c1=S (stereo unspecified)
86	nt	30.0	Cc1cccc(/N=C2/NC(=O)C(Cc3cccc(C(F)(F)F)c3)S2)n1 (stereo unspecified)
87	0.5	nt	COC(=O)C1=C(C)N=c2s/c(=C\c3cc(Br)ccc3OC(C)=O)c(=O)n2C1c1ccc(OC)cc1 (stereo unspecified)
88	nt	-20.0	Cc1nn(-c2ccccc2)c(Cl)c1/C=C/C(=O)O
89	nt	-16.0	CCOC(=O)Cc1csc(NC(=O)c2cc(Cl)sc2Cl)n1
90	2.8	-17.0	COc1ccc(CN(CC(=O)NC2CCCC2)C(=O)Cn2nnc(-c3ccc(OC)cc3)n2)cc1
91	nt	16.0	COc1ccc(C(=O)CSc2nnc(C)n2Cc2ccccc2)cc1OC
92	-0.1	-11.0	CSc1nc2sc3c(c2c2nncn12)CCC(C(C)(C)C)C3 (stereo unspecified)
93	nt	15.0	O=C(O)C1CCCCC1C(=O)Nc1ccccn1 (stereo unspecified)
94	nt	11.0	O=C(O)c1cc(O)ccc1-c1ccc(O)cc1
95	-1.2	nt	CCC(O)(c1ccccc1)c1ccccc1N (stereo unspecified)
96	-3.5	1.0	COc1cccc(C(c2cc3c(cc2O)OCO3)N2CCCC2)c1O (stereo unspecified)
97	3.0	2.0	Cc1cnc(C(=O)Nc2ccc(C(=O)N(C)C3CCCCC3)cc2)cn1
98	-1.4	nt	CCOC(=O)c1c(NC(=O)COc2ccc(Cl)cc2)sc(C(=O)Nc2ccccc2C)c1C
99	nt	4.0	CCOc1nc(OCC)nc(N2CCC(C)CC2)n1
100	0.1	3.0	COc1cc(NC(=O)C(F)(F)F)c(OC)cc1Br

(continued)
item	MgrA DNA FP	Sa helicase inh	smiles
101	4.4	-3.0	O=C(Nc1cc(F)ccc1F)C1(c2ccc(F)cc2)CCCC1
102	2.2	8.0	Cc1ccc(CS(=O)Cc2ccc(C(=O)N3CCN(Cc4ccccc4)CC3)o2)cc1 (stereo unspecified)
103	-13.0	33.0	CC1CCCC(C)N1CCNc1nc2ccccc2c2nc(-c3ccccc3)nn12 (stereo unspecified)
104	-1.7	nt	CC12CC3CC(C)(C1)CC(C(=O)O)(C3)C2
105	-1.3	-8.0	Cc1cc(C)c(C#N)c(SCC(=O)NCC2CCCCC2)n1
106	nt	-7.0	Cc1ccc(S(=O)(=O)N2CC=C(C(=O)NCc3ccccc3)CC2)cc1
107	nt	-22.0	Cc1nn(-c2ccccc2)c2sc(C(=O)NN3C(=O)c4ccccc4C3=O)cc12
108	2.8	-21.0	Cc1ccc(-c2cccc(NC(=O)C3C4C=CC(C4)C3C(=O)O)c2)o1 (stereo unspecified)
109	nt	9.0	OC(c1cccs1)c1nccc2ccccc12 (stereo unspecified)
110	-1.0	nt	Clc1ccc(-c2nn[nH]n2)cc1Cl
111	nt	-9.0	N#Cc1c(C(F)(F)F)c2c([nH]c1=S)CCCC2
112	-0.6	nt	O=C(NCc1ccco1)c1ccsc1
113	nt	-5.0	CCn1c(SC(C)C#N)nnc1-c1cccs1 (stereo unspecified)
114	nt	3.0	COc1ccc(NC(=O)COC(=O)C2CC3C=CC2C3)cc1 (stereo unspecified)
115	-0.9	nt	NC(=S)c1ncc(C(F)(F)F)cc1N1CCCC1
116	nt	4.0	Cn1ncc2c(N3CCN(c4ccccc4)CC3)ncnc21
117	-1.7	16.0	CCc1nc2ccc(NC(C)=O)cc2c(=O)n1Cc1ccccc1
118	nt	6.0	Cc1oc(-c2ccccc2)nc1C(=O)OCC(=O)Nc1ccnn1C(C)C

By substructure, the compounds so far containing a thiophene ring, fused or not
item	MgrA DNA FP	Sa helicase inh	smiles
3	1.5	16.0	CSc1ccc(CCNC(=O)c2csc3c2CCCC3)cc1
4	-2.7	nt	CC(C)(C)c1ccc(Oc2ncccc2NC(=O)c2cccs2)cc1
10	-0.8	nt	O=S(=O)(Nc1cccc2nsnc12)c1cc(Cl)sc1Cl
17	1.0	0.0	CCOC(=O)c1c(NC(=O)c2nc3ncccn3n2)sc2c1CCC(CC)C2 (stereo unspecified)
46	1.4	-11.0	Cc1ccc(CNC(=O)CSc2nc3ccsc3c(=O)n2C2CC2)cc1
79	nt	-36.0	O=C(Nc1ccc(N2CCOCC2)cc1)c1cccs1
89	nt	-16.0	CCOC(=O)Cc1csc(NC(=O)c2cc(Cl)sc2Cl)n1
92	-0.1	-11.0	CSc1nc2sc3c(c2c2nncn12)CCC(C(C)(C)C)C3 (stereo unspecified)
98	-1.4	nt	CCOC(=O)c1c(NC(=O)COc2ccc(Cl)cc2)sc(C(=O)Nc2ccccc2C)c1C
107	nt	-22.0	Cc1nn(-c2ccccc2)c2sc(C(=O)NN3C(=O)c4ccccc4C3=O)cc12
109	nt	9.0	OC(c1cccs1)c1nccc2ccccc12 (stereo unspecified)
112	-0.6	nt	O=C(NCc1ccco1)c1ccsc1
113	nt	-5.0	CCn1c(SC(C)C#N)nnc1-c1cccs1 (stereo unspecified)
